# Methyltransferases: Primary Screen for Target Class Profiling of Small Molecule Inhibitors of Methyltransferases; purified enzyme, MTase-Glo SAH luminescence; hits give low values; calls only at 40 µM; actives 3.9% (n = 25,000); AID 1745853, 2022; active = -50% or lower on at least one of six enzymes; inconclusive = the cases between; inactive = as a rule above -30% on all six;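 further: enzymes were COMT GAMT GNMT HNMT NNMT and PNMT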
#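 Each enzyme was assayed with SAM and its substrate. SAH formation detected by MTase-Glo luminescence; single-point 40 uM screen[…].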
# Calls only; i = inactive; ? = inconclusive; + = active, no number. On the % scale 0 is the no-effect control and ±100 the full control effect. This is a subset, so the mix of outcomes need not match the whole.
no.	compound	Methyltransferases
1	CCc1cc2c(cc3n2CC(C)(C(=O)NC2CCCCC2)N(Cc2ccc(Cl)cc2)C3=O)s1 (stereo not drawn)	i
2	Cn1nc(C(C)(C)C)cc1C(=O)NC(Cc1cccc(Cl)c1)C(=O)NCC#N (stereo not drawn)	?
3	O=C(NC1CCCc2ccccc21)C1CN(C2CCCCC2)C(=O)N1 (stereo not drawn)	i
4	CCCN1C(=O)c2cc(C(=O)N3CCC(C)CC3)nn2CC1(C)C(=O)NC1CCCC1 (stereo not drawn)	i
5	Cc1ccccc1Cn1nc2n(C(C)C)c(=O)c3ccc(C(=O)NCC(C)C)cc3n2c1=O	i
6	O=C(N[C@H]1CCN2C(=O)N(c3cccc(C(F)(F)F)c3)C(=O)[C@@H]2C1)c1ccncc1	i
7	NC(=O)[C@H](Cc1ccc(O)cc1)NC(=O)[C@@]1(O)C[C@@H](O)[C@H](O)[C@@H](NC(=O)c2ccc(F)c(Cl)c2)C1	i
8	Cc1noc(-c2ccccc2Cl)c1C(=O)NCCCc1ccccc1	i
9	Cc1ccc(N2C(=O)c3cc4occc4n3CC2(C)C(=O)NC2CCCCCCC2)cc1C (stereo not drawn)	i
10	O=C(C1CCC1)N1CCOc2ccc(CN3CCc4ccccc4C3)cc2C1	?
11	O=C1CC2(CCN([S+](=O)([O-])c3cccc(C(F)(F)F)c3)CC2)Oc2ccccc21	i
12	CCc1ccc(CN2C(=O)c3cc(C(C)(C)C)nn3CC2(C)C(=O)NCc2ccccc2)cc1 (stereo not drawn)	i
13	OC[C@@H]1O[C@H](CNC2CCOCC2)[C@H](N2CCCCC2)[C@@H]1O	i
14	Cc1ccsc1C(=O)N1C[C@@H](F)C[C@H]1C(=O)N1CCCCC1	i
15	O=c1cc(-c2ccccn2)oc2c(Nc3cccnc3)nccc12	i
16	COc1ccc(OC)c(CNC(=O)CCn2ccc3cc(S(=O)(=O)N4CCCCC4)ccc32)c1	i
17	COCCN[C@H]1[C@@H]2OC[C@@H](O2)[C@@H](NC(=O)Nc2ccc(OC)cc2)[C@@H]1O	i
18	Cc1ccc([S+](=O)([O-])N2CCN(c3nc4ncccc4o3)CC2)cc1	i
19	O=C(CC1CCCC1)N1CCCC(c2nn[nH]n2)C1 (stereo not drawn)	i
20	Cc1ccc(NC(=O)C2CCc3nnc(C4CCN(C(=O)NC(C)(C)C)CC4)n32)cc1 (stereo not drawn)	i
21	Cc1cnc(-c2ccncc2)n1C1CCN(S(=O)(=O)c2cccc(F)c2)CC1	i
22	COc1ccc(CNC(=O)C2(C)Cn3cnc(C(=O)NCc4cccc(C)c4)c3C(=O)N2C2CC2)cc1 (stereo not drawn)	i
23	Cc1cc(C)cc(N2C(=O)c3cc4sccc4n3CC2(C)C(=O)NC2CCCCCCC2)c1 (stereo not drawn)	i
24	CCOC(=O)c1ncn2c1CN(C)C(=O)c1cc(F)ccc1-2	i
25	CN(C)S(=O)(=O)c1ccc(CNC(=O)C2CCCN(CC(N)=O)C2)cc1 (stereo not drawn)	i
26	CCN1CCN(c2nc3c(-c4cccc(F)c4)nnn3c3ccc(Cl)cc23)CC1	i
27	Cc1ccc(NC(=O)Cn2c(=O)oc3cc(S(=O)(=O)N4CC(C)CC(C)C4)ccc32)cc1C (stereo not drawn)	i
28	O=C(c1ccncc1)N1CCC2(CN[S+](=O)([O-])c3cnccc3O2)C1 (stereo not drawn)	i
29	COCC1(CNCC2CCCC2)C[C@@H](O)[C@@H](O)C1 (stereo partly drawn)	i
30	Cc1ccc(Cn2c(=O)c3ccccc3n3c(=O)n(CC(=O)Nc4ccc(C)cc4C)nc23)cc1	i
31	CC(CCC1(O)OC2CC3C4CC=C5CC(O[C@@H]6O[C@H](CO)[C@@H](O[C@@H]7O[C@@H](C)[C@H](O)[C@@H](O)[C@H]7O)[C@H](O)[C@H]6O[C@@H]6O[C@@H](C)[C@H](O)[C@@H](O)[C@H]6O)CCC5(C)C4CCC3(C)C2C1C)CO[C@@H]1O[C@H](CO)[C@@H](O)[C@H](O)[C@H]1O (stereo partly drawn)	i
32	Cc1ccc(F)c(OC2(C(=O)O)CCN(Cc3cccc(C)n3)CC2)c1	i
33	CN1C(=O)c2cc(C(=O)N3CCCCC3)nn2CC1(C)C(=O)NC1CCCCCC1 (stereo not drawn)	i
34	CC1CCN(CC2CCCN(C(=O)COc3ccc(F)cc3)CC2)CC1 (stereo not drawn)	i
35	O=C(O)c1ccc(C2CCCN(C(=O)c3cccc(N4CCOCC4)c3)C2)cc1 (stereo not drawn)	i
36	O=C(CCCc1c[nH]c2ccccc12)N1CCc2nc3cc[nH]n3c(=O)c2C1	i
37	Cc1cccc(-n2ncc3c2CCCC3NC(=O)CN2CCNC(=O)C2)c1C (stereo not drawn)	i
38	CCCCC(F)(F)[C@@]1(O)CC[C@H]2[C@H](CC(=O)[C@@H]2CCCCCCC(=O)O)O1	i
39	O=C(c1cccs1)N1CCN2CCS(=O)(=O)N(C3CC3)C(=O)C2C1 (stereo not drawn)	i
40	CCOC(=O)c1cc2n(n1)CC(C)(C(=O)NCc1ccccc1OC)N(CCc1ccccc1Cl)C2=O (stereo not drawn)	i
41	C=CCN(C)C(=O)CC1COc2ccc(C(=O)N(C)C)cc2N1C (stereo not drawn)	i
42	COc1ccnc(-c2nnc3ccc(Nc4cc(OC)c(OC)c(OC)c4)nn23)c1	+
43	CCc1ccc(CN2C(=O)c3cc(-c4ccco4)nn3CC2(C)C(=O)NCCC(C)C)cc1 (stereo not drawn)	i
44	CCOC(=O)c1cc2n(n1)CC(C)(C(=O)NC1CCC(C)CC1)N(Cc1ccc(OCC)cc1)C2=O (stereo not drawn)	i
45	CC(C)=CCC[C@](C)(O[C@@H]1O[C@H](CO[C@@H]2OC[C@@H](O)[C@H](O)[C@H]2O)[C@@H](O)[C@H](O)[C@H]1O)[C@H]1CC[C@]2(C)[C@@H]1[C@H](O)C[C@@H]1[C@@]3(C)CC[C@H](O[C@@H]4O[C@H](CO)[C@@H](O)[C@H](O)[C@H]4O[C@@H]4O[C@H](CO)[C@@H](O)[C@H](O)[C@H]4O)C(C)(C)[C@@H]3CC[C@]12C	i
46	Cc1ccccc1NC(=O)Nc1ccc(CN2C(=O)N([C@@H](CC(C)C)C(=O)N[C@@H](CC(=O)O)c3ccccc3)C(=O)C2(C)C)cc1	i
47	CC1CCC(NC(=O)C2(C)Cn3c(cc4sccc43)C(=O)N2CCCc2ccccc2)CC1 (stereo not drawn)	i
48	CSCC[C@@H]1NC(=O)c2cc(NC(=O)c3ccc(-n4cnnn4)cc3)ccc2NC1=O	i
49	CS(=O)(=O)N1C[C@@H](Oc2ccccc2)C[C@H]1C(=O)N1CCCC1	i
50	CC(C)N1CC(C(=O)NCCc2ccc(Cl)cc2)NC1=O (stereo not drawn)	i
51	CCN1C(=O)c2cc(C(=O)N3CCN(c4ccccc4)CC3)nn2CC1(C)C(=O)NC1CCCC1 (stereo not drawn)	i
52	O=C(N[C@H]1CO[C@H]2[C@@H]1OC[C@@H]2Nc1nccc(-c2ccco2)n1)c1ccco1	i
53	COc1ccccc1CNC(=O)C1(C)Cn2nc(-c3ccccc3)cc2C(=O)N1c1cc(C)ccc1C (stereo not drawn)	i
54	COc1cc(Cl)ccc1C(=O)N1CC[C@@H]2CN(S(C)(=O)=O)[C@@H]2C1	i
55	COc1ccc(-c2cc3n(n2)CC(C)(C(=O)NCc2ccccc2)N(Cc2ccc(F)cc2)C3=O)cc1 (stereo not drawn)	i
56	Cc1nn(C)c(C)c1S(=O)(=O)N1CCC2(CC1)CC(N(C)Cc1ccccc1)CCO2 (stereo not drawn)	i
57	C[C@@H](OC(=O)/C=C/c1ccc(O)cc1)C1=C[C@]2(C=C[C@@H]3C(C(=O)O)=CO[C@@H](O[C@@H]4O[C@H](CO[C@@H]5O[C@H](CO)[C@@H](O)[C@H](O)[C@H]5O)[C@@H](O)[C@H](O)[C@H]4O)[C@@H]32)OC1=O	i
58	CC1CC(C)CN(CCCN2C(=O)c3ccc(-c4ccco4)n3CC2(C)C(=O)NC2CCCCCC2)C1 (stereo not drawn)	i
59	Cc1ccc(N2C(=O)N[C@@H]3CCN(C(=O)CC4(CC(=O)O)CCCC4)[C@@H]3C2=O)cc1	i
60	COc1cccc(CN2CC(C(=O)NCc3n[nH]c(=O)[nH]3)CCC2=O)c1 (stereo not drawn)	i

# Remaining list, next part.
no.	compound	Methyltransferases
61	COC1=CC(=O)O/C1=C(/OC)[C@@H]1O[C@H]1c1ccccc1	i
62	Cc1c(O)cccc1C(=O)N[C@@H](CSc1ccccc1)[C@H](O)CN1C[C@H]2CCCC[C@H]2C[C@H]1C(=O)NC(C)(C)C	i
63	CC(C)(O)c1ccc2c(c1)C(O)C[C@H]1[C@](C)(C(=O)O)CCC[C@]21C (stereo partly drawn)	i
64	COc1ccc(-n2c(CCN)n[nH]c2=O)c(C)c1	i
65	Nc1ncnc2c1c(-c1ccc(Cl)cc1)nn2-c1cccc(-c2cnnn2Cc2cccc(-c3ccccc3)c2)c1	?
66	CCC(C)NC(=O)c1ccc2c(=O)n(C)c3nnc(SCC(=O)NC4CCCCC4)n3c2c1 (stereo not drawn)	i
67	CSc1ccc(CCNC(=O)c2cc3n(n2)CCCN(Cc2ccc(C)cc2)C3=O)cc1	i
68	CCCN1C(=O)c2c(C(=O)NCc3ccc(C)cc3)ncn2CC1(C)C(=O)NCc1ccc(C)cc1 (stereo not drawn)	i
69	CCCn1c(=O)c2cc(Cl)ccc2n2c(SCC(=O)Nc3cc(OC)cc(OC)c3)nnc12	i
70	CC1CCC(NC(=O)C2(C)Cn3c(nc4ccccc43)C(=O)N2CCN2CCOCC2)CC1 (stereo not drawn)	i
71	CCCn1c(=O)c2ccccc2n2c(SCC(=O)Nc3ccc(OC)cc3)nnc12	i
72	COc1ccc(NC(=O)Cn2c(=O)oc3cc(S(=O)(=O)N4CCC(C)CC4)ccc32)c(OC)c1	i
73	O=C(C[C@@H]1CCNC[C@@H]1Cc1cc(CSc2ccccc2)on1)N1CCN(c2ccccc2)CC1	i
74	Cc1c(Cl)cccc1NC(=O)N1CCn2cccc2C1Cc1ccccc1 (stereo not drawn)	i
75	CC1(C(=O)NC2CCCC2)Cn2c(ccc2-c2ccco2)C(=O)N1CCN1CCCCCC1 (stereo not drawn)	i
76	C=C(C)C(=O)OC1CC2(C)OC(=CC2=O)C(=C)CC2OC(=O)C(=C)C12 (stereo not drawn)	i
77	CN1C(=O)c2cc(C(=O)NCCN3CCCCC3)nn2CC1(C)C(=O)NCc1ccc(F)cc1 (stereo not drawn)	i
78	CN1C(=O)c2cc(C(=O)NC3CCN(Cc4ccccc4)CC3)nn2CC1(C)C(=O)NCc1ccc(F)cc1 (stereo not drawn)	i
79	CC(=O)N1CCN([C@H]2[C@@H]3OC[C@@H](O3)[C@@H](NCc3ccccc3O)[C@@H]2O)CC1	i
80	CC(=O)Nc1ccc(S(=O)(=O)N2C[C@@H]3C[C@H](C2)c2c(-c4ccc(OC(F)(F)F)cc4)ccc(=O)n2C3)cc1	i

# An excerpt of these results, field by field.
[69] CCCn1c(=O)c2cc(Cl)ccc2n2c(SCC(=O)Nc3cc(OC)cc(OC)c3)nnc12
  Methyltransferases: i
[70] CC1CCC(NC(=O)C2(C)Cn3c(nc4ccccc43)C(=O)N2CCN2CCOCC2)CC1 (stereo not drawn)
  Methyltransferases: i

# Retrieved one by one from the list above:
no.	compound	Methyltransferases
77	CN1C(=O)c2cc(C(=O)NCCN3CCCCC3)nn2CC1(C)C(=O)NCc1ccc(F)cc1 (stereo not drawn)	i
71	CCCn1c(=O)c2ccccc2n2c(SCC(=O)Nc3ccc(OC)cc3)nnc12	i
68	CCCN1C(=O)c2c(C(=O)NCc3ccc(C)cc3)ncn2CC1(C)C(=O)NCc1ccc(C)cc1 (stereo not drawn)	i

# Continuation:
no.	compound	Methyltransferases
81	CCCN1C(=O)c2ccc(-c3ccco3)n2CC1(C)C(=O)NCc1ccc(Cl)cc1 (stereo not drawn)	i
82	CCc1cccc2c(C(CC(=O)N3CCCCC3)c3cccc(OC)c3)c[nH]c12 (stereo not drawn)	i
83	CC(=O)C=C=C1C(C)(C)CC(O)CC1(C)O[C@@H]1O[C@H](CO[C@H]2OC[C@](O)(CO)[C@H]2O)[C@@H](O)[C@H](O)[C@H]1O (stereo partly drawn)	?
84	Cc1cc2ncc(C(=O)NC(C)CCc3ccccc3)cn2n1 (stereo not drawn)	i
85	O=C(N[C@H](c1ccccc1)C1CC(O)C1)c1ccc(-n2cccn2)cc1 (stereo partly drawn)	i
86	CCCCc1nc2c3ccccc3n(CC(=O)N3CCN(c4ccccc4F)CC3)c(=O)n2n1	i
87	CC(C)CNC(=O)C1CCCN(c2ccnc3ccnn23)C1 (stereo not drawn)	i
88	O=C(NCCc1ccccc1)N1CC(c2noc(C3CCCN3CC3CC3)n2)C1 (stereo not drawn)	i
89	Nc1ccc(N2C(=O)c3ccccc3C2=O)c(Cl)c1	i
90	O=C(CCc1nnc2n(Cc3ccccc3)c(=O)c3ccccc3n12)NCCc1c[nH]c2ccccc12	i
91	O=C(c1n[nH]c2ccccc12)N1CCC2(CC1)N(c1ccccc1)C(=O)CS2=O (stereo not drawn)	i
92	COCCN1C(=O)c2cc3occc3n2CC1(C)C(=O)NC1CCCCCCC1 (stereo not drawn)	i
93	O=C(Cn1ccc2cc(S(=O)(=O)N3CCCCC3)ccc21)NCCc1ccco1	i
94	CCc1cc2c(cc3n2CC(C)(C(=O)NC2CCCCCC2)N(c2cccc(OC)c2)C3=O)s1 (stereo not drawn)	i
95	COc1cccc(N2C(=O)c3cc(-c4cccs4)nn3CC2(C)C(=O)NC2CCCCCC2)c1 (stereo not drawn)	i

# In the list so far, four contain a tert-butyl group.
no.	compound	Methyltransferases
2	Cn1nc(C(C)(C)C)cc1C(=O)NC(Cc1cccc(Cl)c1)C(=O)NCC#N (stereo not drawn)	?
12	CCc1ccc(CN2C(=O)c3cc(C(C)(C)C)nn3CC2(C)C(=O)NCc2ccccc2)cc1 (stereo not drawn)	i
20	Cc1ccc(NC(=O)C2CCc3nnc(C4CCN(C(=O)NC(C)(C)C)CC4)n32)cc1 (stereo not drawn)	i
62	Cc1c(O)cccc1C(=O)N[C@@H](CSc1ccccc1)[C@H](O)CN1C[C@H]2CCCC[C@H]2C[C@H]1C(=O)NC(C)(C)C	i

# Source: PubChem BioAssay
